High-throughput results (PubChem BioAssay)
StopGo reporter = High Throughput Screening for Foot and Mouth Disease Virus Antivirals; 1.2% of 410,000 active; human cells with a luciferase reporter of 2A StopGo recoding; control for the full effect not named in the record; Potency, µM (titrated, usually from 57.9 µM), without a hit: top-dose signal change, negative = less light; active = well fitted falling curve with a large enough effect; inconclusive = small, poorly fitted or top-dose-only effect; inactive = no such curve, though single readings can be large or run the other way; tested in HEK293T cells; note: % is set by controls: 0 for no effect and ±100 for the full control effect; nearly all actives have a fitted effect of over 45% in size; luciferase light after 4 h
Cruzain inh Det = qHTS Assay for Promiscuous and Specific Inhibitors of Cruzain (with detergent); Potency, µM, for the others: max response, negative = inhibition, usual class: inhibitors; purified cruzain, Z-FR-AMC fluorescence, 0.01% Triton; 0.43% of 200,000 active; Cruzipain (Trypanosoma cruzi), P25779; AID 1478, 2009; active = well fitted curve in the direction sought with a large enough effect; inconclusive = small, poorly fitted or top-dose-only effect, or another doubt; inactive = no such curve, though single readings can be large; an effect the other way counts as inactive or inconclusive;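 note: plate controls were neutral wells for no effect and buffer without enzyme for full effect; nearly all actives have a fitted effect of over 40% in size; top concentration of the series not given in the record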
Target sequence (P25779 123-467 limits assumed): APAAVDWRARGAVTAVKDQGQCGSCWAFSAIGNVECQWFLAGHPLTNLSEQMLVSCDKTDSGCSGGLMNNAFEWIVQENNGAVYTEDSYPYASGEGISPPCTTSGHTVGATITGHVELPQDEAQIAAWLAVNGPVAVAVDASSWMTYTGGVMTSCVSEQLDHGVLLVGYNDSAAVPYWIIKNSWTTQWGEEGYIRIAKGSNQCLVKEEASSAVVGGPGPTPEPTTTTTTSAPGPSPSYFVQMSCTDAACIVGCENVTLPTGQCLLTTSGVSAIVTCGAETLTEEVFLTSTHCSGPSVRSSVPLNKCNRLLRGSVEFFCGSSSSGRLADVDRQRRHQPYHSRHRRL
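Z-FR-AMC hydrolysis (2 uM substrate) by cruzain (1.5 nM) monitored kinetically at ex 360/em 450 nm after 15 min room-temperature compound exposure; 0.01% Triton X-100, pH 5.5, 5 mM DTT.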
NS1 function inh = qHTS Assay for Inhibitors of Influenza NS1 Protein Function | S. cerevisiae slowed by influenza A NS1, growth recovery by OD600 | Potency, µM (doses to about 46.1 µM), for the others: at the top dose activity, positive = more growth | 0.4% of 270,000 active | AID 2326, 2010; note: actives are rising curves; nearly all actives have a fitted effect of over 50% in size
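Read-out: OD600 growth recovery of NS1-expressing budding yeast. Cells grown overnight at 30C in -URA glucose medium, washed, resuspended and diluted 1:100 in 2% galactose assay medium, pH 6.0. Same strain lacking NS1 served as positive control.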
SARS PLP yeast = qHTS of Yeast-based Assay for SARS-CoV PLP; 0.19% of 330,000 active; S. cerevisiae expressing SARS-CoV PLpro, growth rescue; control for the full effect not named in the record; AID 485353, 2010; Potency, µM (titrated, usually from 32.9 µM), without a hit: top-dose activity, positive = growth rescue; note: 0% is about no effect; nearly all actives have a fitted effect of over 55% in size; growth read by luminescence after 48 h
LASV entry inh = qHTS for Inhibitors of binding or entry into cells for Lassa Virus | Lassa virus pseudotype entry inhibition, cell reporter; control for the full effect not named in the record | Potency, µM (titrated, usually from 37.9 µM), for inactives: at the top dose activity change, negative = inhibition, most hits filed as inhibitors | 1.2% of 300,000 active; active means well fitted inhibition curve with a large enough effect; inconclusive means small, poorly fitted or top-dose-only effect, or effect the other way; inactive means flat fitted curve, though single readings scatter; tested in HEK293 cells; note: % is set by controls: 0 for no effect and ±100 for the full control effect; nearly all actives have a fitted effect of over 50% in size; luciferase read-out
Marburg entry inh = qHTS for inhibitors of binding or entry into cells for Marburg Virus. Marburg virus pseudotyped entry inhibition, cell reporter; control for the full effect not named in the record; about a third of the inactives were read at about 46 µM. Potency, µM (titrated, usually from 37.8 µM), inactives show at the top dose activity change, negative = inhibition, hits mostly inhibitors. 1.8% of 300,000 active; active = well fitted inhibition curve with a large enough effect; inconclusive = small, poorly fitted or top-dose-only effect, or effect the other way; inactive = flat fitted curve, though single readings scatter; tested in HEK293 cells; about a fifth of its hits are not listed in these tables; note: % is set by controls: 0 for no effect and ±100 for the full control effect; luciferase read-out
RE007 growth inh = qHTS Assay for Inhibitors of the HIV-1 protein Vpr. Potency, µM (doses to about 92.2 µM), for inactives: at the top dose activity change, negative = less growth. 0.21% of 360,000 active. S. pombe RE007 Vpr strain, BacTiter-Glo ATP luminescence, 24 h; control for the full effect not named in the record; active = well fitted falling curve with a large enough effect; inconclusive = small, poorly fitted or top-dose-only effect; inactive = no such curve, though single readings can be large or run the other way;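 note: % is set by controls: 0 for no effect and ±100 for the full control effect; nearly all actives have a fitted effect of over 50% in size; the assay follows cell death caused by Vpr and the record does not say whether a fall means rescue or toxicity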
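Fission yeast strain RE007, carrying one chromosomally integrated HIV-1 vpr copy, was seeded at OD 0.01 in PMG+AL medium with 23 nL pinned compound. After 24 h at 30 °C and 99% humidity, viability was read by BacTiter-Glo luminescence.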
Cruzain noTriton = qHTS Assay for Promiscuous and Specific Inhibitors of Cruzain (without detergent); purified cruzain, Z-FR-AMC fluorescence, no detergent; Potency, µM, without a hit: max response, negative = inhibition, actives largely listed as inhibitors; 2.3% of 200,000 active; active = well fitted curve in the direction sought with a large enough effect; inconclusive = small, poorly fitted or top-dose-only effect, or another doubt; inactive = no such curve, though single readings can be large; an effect the other way counts as inactive or inconclusive;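 note: plate controls were enzyme without inhibitor for no effect and buffer without enzyme for full effect; nearly all actives have a fitted effect of over 40% in size; top concentration of the series not given in the record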
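Detergent-free condition (0.00005% Triton X-100) in acetate buffer pH 5.5 with DTT. 1.5 nM enzyme and compound were pre-mixed 15 min, then 2 uM Z-FR-AMC substrate added; reaction progress from fluorescence change between first and third reads (60 s).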
* = called active by the depositor; ? = inconclusive; . = not tested or not shown; & = joins results of further samples; [ ] = another dose, or the depositor's remark. Unless noted, calls come from the whole dose curve; as a rule, active means well fitted rising curve with a large enough effect; inconclusive means small, poorly fitted or top-dose-only effect; inactive means no such curve, though single readings can be large or run the other way. Potency is the fitted concentration of half-maximal effect.

SMILES	StopGo reporter	Cruzain inh Det	NS1 function inh	SARS PLP yeast	LASV entry inh	Marburg entry inh	RE007 growth inh	Cruzain noTriton
CCOC(=O)C1CCN(S(=O)(=O)CCNC(=O)c2ccc(F)cc2)CC1	-8.2%	.	.	11.7%	2.5%	10.0%	-7.0%	.
CCOc1cc(NC(=O)c2ccccn2)c(OCC)cc1NC(=O)c1ccc(C)cc1	-3.9%	.	1.2%	-1.6%	.	.	6.1%	.
O=C1C2CC=CCC2C(=O)N1Cc1ccccc1 (configuration not stated)	.	-2.1%	-5.5%	-2.9%	16.8%	2.5%	6.0%	5.7%
O=C(Nc1ccccc1-c1ccccc1)c1ccc(Cl)c([N+](=O)[O-])c1	-9.1%	-2.8%	-0.9%	16.1%	23.1µM*	7.31µM*	3.1%	1.9%
Cc1cc(=O)[nH]c(N/N=C/c2ccc(N(C)C)cc2)n1	32.5%[activator]	.	-8.8%	0.8%	22.7%[46.1 µM]	?	11.0%	.
Cc1ccc(CNC(=O)CCNS(=O)(=O)c2cccc3nonc23)cc1	-0.7%	3.5%	2.2%	0.4%	9.2%	-2.2%	16.9%	1.6%
COc1ccc(-c2nnc3ccc(SCC(=O)N4CCCC4)nn23)cc1	24.0%	-1.5%	-1.1%	-0.4%	.	.	16.3%	-4.8%
Cc1nnc(SCC(=O)Nc2ccc3[nH]c(=O)[nH]c3c2)s1	-24.9%	.	.	-1.6%	-13.6%	-10.8%	5.5%	.
COc1ccccc1C(=O)NCCC(=O)NC1CCCCCC1	25.4%	.	.	-9.5%	12.9%	-0.2%[46.1 µM]	-7.3%	.
COc1ccc(/C=N\n2nnc3ccccc32)cc1	-84.8%	-2.5%	-6.2%	-7.0%	1.41µM*	2µM*	-11.1%	-10.2%
CC1C/C(=N\NC(=O)c2ccc(NS(=O)(=O)c3ccc(Br)cc3)cc2)CC(C)(C)C1 (configuration not stated)	-4.6%	-8.9%	18.8%	4.9%	-1.0%	0.6%	8.6%	-1.8%
O=c1nc(N/N=C/c2ccccn2)cn[nH]1	12.8%	.	-11.0%	-24.8%	3.55µM*	?	14.9%	.
Cc1ccc(SCc2cc(=O)[nH]c(Nc3nc(C)c4cccc(C)c4n3)n2)cc1	21.7%	-0.5%	7.4%	7.3%	-50.5%[14.3 µM]	9.2µM*	6.8%	7.0%
CC(C)=CC(=O)OCC(=O)Nc1ccc(SC(F)F)cc1	22.2%	.	.	-1.2%	-0.6%	1.6%[46.1 µM]	-1.1%	.
Cc1cccc(CS(=O)(=O)Cc2ccc(C(=O)NCc3ccco3)o2)c1	-12.9%	4.0%	-5.4%	4.8%	-20.5%	3.4%	5.3%	2.7%
O=C(CCN1CCCCC1)Nc1ccc(Br)cc1C(=O)c1ccccc1	-22.4%	.	-3.1%	-0.4%	-9.1%[46.1 µM]	12.6µM*	-1.4%	.
COc1ccc(C(=O)NCCN(C)C)c2nc3ccccc3cc12	-11.1%	.	.	.	?	1.26µM*	-2.0%	.
O=C(Nc1nnc(SCC(=O)N2CCCc3ccccc32)s1)c1ccc2ccccc2c1	?	-6.7%	?	15.8%	?	?	-20.4%	?
Cc1cc(C)c(CN2CCCC(CNC(=O)c3ccc(F)cc3)C2)c(-n2cccn2)c1 (configuration not stated)	-16.3%	.	-2.1%	-0.4%	.	.	-6.0%	.
CCc1ccc(-c2cc(C)no2)cc1S(=O)(=O)N1CCN(c2ccc(C(C)=O)cc2)CC1	?	.	-2.6%	-3.9%	?	?	-6.7%	.
Cc1ccc(C(=O)N2CCN(c3cccc(C)c3C)CC2)cc1S(=O)(=O)N1CCOCC1	-14.4%	.	.	-7.8%	?	-29.7%	2.0%	.
O=C(O)CSc1nnc(-c2ccncc2)n1CCc1ccccc1	15.2%	-3.1%	-0.5%	1.8%	1.0%	21.2%	9.5%	2.8%
CCN(CC)C(=O)CSc1nc2[nH]ncc2c(=O)[nH]1	-15.9%	.	.	4.6%	23.1%	15.5%	14.7%	.
CCOC(=O)c1c(NC(=O)/C=C/c2ccc(OCC)cc2)sc(C)c1C	5.9%	-1.6%	.	.	-10.8%[46.1 µM]	-2.4%[46.1 µM]	.	4.9%
Cc1oc(-c2ccc(Cl)cc2)nc1CSc1nnc(C)n2c1cc1sccc12	-3.5%	-0.2%	.	.	-2.8%[46.1 µM]	.	.	-0.7%

Later entries.
SMILES	StopGo reporter	Cruzain inh Det	NS1 function inh	SARS PLP yeast	LASV entry inh	Marburg entry inh	RE007 growth inh	Cruzain noTriton
c1ccc2c(c1)oc1c(NCC3CCCO3)ncnc12 (configuration not stated)	-4.4%	-0.3%	-5.4%	-0.2%	3.8%	24.6%	-9.3%	-2.8%
CCOC(=O)C1=C(C)OC(N)=C(C#N)C1c1cc2c(cc1Br)OCO2 (configuration not stated)	-6.2%	-18.3%	-64.2%	-8.1%	11.0%	8.1%	9.1%	-1.1%
O=C(/C=C/c1ccccc1)Nc1cc(-c2nc3ccccc3o2)ccc1Cl	55.3%[activator]	-0.9%	.	.	11.7%[46.1 µM]	.	.	-3.0%
COc1ccc(C2NC(=O)CCC2[N+](=O)[O-])c(OC)c1OC (configuration not stated)	-2.0%	.	10.7%	?	.	.	-4.7%	.
Cc1c(C(=O)Nc2ccncc2)sc2nc(-c3ccccc3)cn12	20µM*	-1.6%	-36.7%	-5.3%	.	.	7.7%	-22.4%
NC1=NC2(CCCCC2)N=C(Nc2ccc(F)cc2F)N1	-24.4%	-1.3%	?	1.9%	12.3%	-13.7%	-6.0%	-12.7%
CC(C)n1cnc2c(Nc3cccc(F)c3)nc(NCCO)nc21	43.8%[activator]	.	-6.0%	7.6%	.	.	-11.5%	.
Cc1ccc(OCC(=O)Nc2ccc(C)c(S(=O)(=O)N3CCCCCC3)c2)c([N+](=O)[O-])n1	?	.	.	2.8%	-22.0%	?	8.4%	.
CSc1nnc(C)c(=O)n1COC(=O)COc1ccccc1C	-11.0%	-3.4%	-7.3%	4.0%	12.2%	-5.8%	-1.6%	8.2%
CCOc1ccccc1N1CC(C(=O)N2CCc3ccccc32)CC1=O (configuration not stated)	-6.6%	2.3%	-6.8%	-5.9%	1.5%	-17.2%	4.3%	-1.6%
Cc1ccc(N(CC(=O)NC2CCCCC2C)S(=O)(=O)c2c(C)nn(C)c2C)cc1 (configuration not stated)	-9.7%	.	9.2%	-2.8%	-5.3%[46.1 µM]	25.5%[46.1 µM]	2.0%	.
Cc1cc(NC(=O)c2noc3c2CCCC3)nn1Cc1ccc(Cl)cc1	-28.4%	1.5%	-43.0%	2.4%	.	-2.9%	1.3%	10.2%
Cc1cccn2c(=O)nc(SCC(=O)N3CC(C)OC(C)C3)nc12 (configuration not stated)	-14.5%	.	.	2.6%	-6.1%	6.6%	5.0%	.
Cc1nc([N+](=O)[O-])c(Br)n1CC(=O)c1ccc(F)cc1	-24.9%	.	.	-7.6%	?	?	30.5%	.
C[C@H]1CN(Cc2ccccc2)C(=O)[C@@H]1CC(=O)NCc1ccccc1	1.4%	.	-4.3%	11.1%	.	.	1.1%	.
CCOC(=O)C(C(=O)OCC)C1CS(=O)(=O)CC1C(C(=O)OCC)C(=O)OCC (configuration not stated)	17.3%	0.5%	5.7%	-4.9%	13.5%	14.4%[46.1 µM]	21.5%	20.6%
CCCCn1c(C2CCCCC2)nc2cc3[nH]c(=O)c(C(C)C)nc3cc21	-26.3%	.	-56.4%	-0.5%	.	.	9.1%	.
O=C(O)c1ccccc1C(=O)c1cccc2ccccc12	-0.1%	.	0.6%	-2.2%	?	?	-1.3%	.
Cc1ccc(NC(=O)[C@@H](c2ccccc2)N2Cc3ccccc3C2=O)cc1F	7.1%	-7.3%	.	.	-3.5%[46.1 µM]	?	.	0.8%
CC(=O)c1cc(C#N)c(N2CCCCC2)nc1C	-23.3%	.	.	-1.6%	0.6%	-13.1%[46.1 µM]	-20.0%	.
CCOC(=O)N1CCC(NC(=O)C2CCN(C(=O)N3CCOc4ccccc43)CC2)CC1	-22.6%	5.3%	3.3%	-0.9%	0.7%	3.7%	4.3%	4.1%
Cc1ccccc1NS(=O)(=O)c1ccc(C(=O)N2CCN(c3ccccc3O)CC2)cc1	?	.	9.2%	1.3%	?	?	8.7%	.
Cc1noc(C)c1COc1ccc(C(=O)OCC(=O)c2ccc3c(c2)OCCO3)cc1	-13.8%	0.0%	2.6%	1.4%	4.9%	-1.1%[46.1 µM]	-12.4%	-5.9%
Fc1ccc(-c2nc(-c3cccs3)no2)cc1	-11.9%	.	-6.7%	-1.4%	.	.	-15.8%	.
CCCCCCC1CCC(C(=O)N2CCOCC2)CC1 (configuration not stated)	-9.3%	.	.	-2.2%	?	7.9%	-12.5%	.

The results go on.
SMILES	StopGo reporter	Cruzain inh Det	NS1 function inh	SARS PLP yeast	LASV entry inh	Marburg entry inh	RE007 growth inh	Cruzain noTriton
Clc1ccc2[nH]c3c(NCCN4CCOCC4)ncnc3c2c1	-13.3%	14.1µM*	-0.8%	-1.1%	?	-20.2%&-20.2%	-3.6%	15.8µM*
COc1ccc(-c2nn3c(-c4ccccn4)nnc3s2)cc1OC	-5.3%	-5.4%	2.7%	0.4%	?	?	-2.5%	-13.2%
Cc1ccc(Cl)cc1NC(=O)c1ccc2snnc2c1	-16.0%	-1.4%	.	.	-3.9%[46.1 µM]	-2.5%[46.1 µM]	.	-9.7%
Cc1ccc(N2C(=O)CC(N3CCN(S(=O)(=O)c4ccccc4)CC3)C2=O)c(C)c1 (configuration not stated)	-21.7%	.	-12.4%	-3.4%	10.4%	?	-7.4%	.
O=C(OCC(=O)N1CCN(C(=O)c2ccco2)CC1)c1ccccc1C(=O)c1ccc(Cl)cc1	.	-0.5%	-4.6%	2.0%	-23.7%	-17.0%	-8.9%	?
CC1(C)NC(=O)N(CC(=O)N2CCN(c3cccc(C(F)(F)F)c3)CC2)C1=O	-10.9%	.	.	2.0%	1.0%	-21.3%	8.2%	.
C1CN(CC23CC4CC(CC(C4)C2)C3)CCO1	4.7%	-0.8%	-1.8%	-11.8%	5.1%	9.6%	16.1%	-10.6%
CCCSc1ncccc1C(=O)O	-11.8%	.	6.3%	0.6%	14.7%	?	2.4%	.
